Screening data from PubChem BioAssay.
Hedgehog inh: Hedgehog pathway signaling inhibitors, primary screen, luminescence, Shh-LIGHT2 cells, Gli-luciferase; inhibition, % (concentration not given with the values); Shh-LIGHT2 Gli-luciferase reporter, 30 h; AID 2313, 2010; 22,000 compounds, 2.1% hits;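 active = replicate mean of 65% or more; inconclusive = mean lower but half the replicates past it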;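 also: pathway switched on by Shh-conditioned medium diluted 1 in 25 in low serum; 100 nL library stock added to about 40 µL; 0% = median of neutral wells and 100% = positive control level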
MITF inhib: inhibitors of MITF, primary screen, MITF inhibitor project, cell-based, luminescence; 37,000 compounds, 0.28% hits; inhibition, % (concentration not given with the values); TRPM1 promoter luciferase, 24 h;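 active = most replicates at 85% or more, or half of them and the mean; inconclusive = half reach 85% but not the mean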;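 also: human melanocyte line stably carrying TRPM1 promoter luciferase reporter; 0% = vehicle wells and 100% = a positive control; the first replicate is given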
PD-1 reversal: activators reversing PD-1 mediated T-cell inhibition, primary screen, luminescence, primary human CD4 T cells, PD-L1 beads | 29,000 tested, under 10 active | activation, % (test concentration not listed) | CellTiter-Glo 96 h | AID 2316, 2010;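 active = replicate mean of 50% or more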;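 also: 0% = median vehicle wells and 100% = positive control; 100 nL library stock added to about 50 µL; numbers are from one replicate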
YB-1 expression: inhibitors of YB-1 gene expression, primary screen, cell-based, fluorescence | U2OS, qRT-PCR YB-1 vs CDIP delta delta Cp, 16 h; active compounds read high; zero = DMSO, each unit about twofold | delta delta Cp (YB-1 minus CDIP) (test concentration not listed) | 30,000 compounds, 0.37% hits;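 active = delta delta Cp rounded down to an integer at or above 3, about 3 SD of DMSO wells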;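 also: higher means less YB-1 transcript or more CDIP transcript relative to DMSO; stock transfer was 100 nL into about 100 µL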
The depositor's hits bear a star; ? = inconclusive; . = not tested or not shown. An excerpt, so the mix of outcomes need not match the whole.

The first 3 compounds as a preview:
Values run as follows: Hedgehog inh, MITF inhib, PD-1 reversal, YB-1 expression
> Cc1csc2sc(C=NCc3cccs3)c(C)c12
  -4, -6, -3.6, -0.31
> C[C@@H]1CN([C@@H](C)CO)C(=O)c2cc(NC(=O)C3CCCCC3)ccc2O[C@@H]1CN(C)S(=O)(=O)c1cn(C)cn1
  7, -8, 1.5, -0.15
> Cc1noc(C)c1NC(=O)N(C)C[C@@H]1Oc2ccc(NC(=O)NC3CCCCC3)cc2C(=O)N([C@@H](C)CO)C[C@@H]1C
  7, -1, 0.9, -0.14

Main list, from the start:
Values run as follows: Hedgehog inh, MITF inhib, PD-1 reversal, YB-1 expression
> Cc1csc2sc(C=NCc3cccs3)c(C)c12
  -4, -6, -3.6, -0.31
> C[C@@H]1CN([C@@H](C)CO)C(=O)c2cc(NC(=O)C3CCCCC3)ccc2O[C@@H]1CN(C)S(=O)(=O)c1cn(C)cn1
  7, -8, 1.5, -0.15
> Cc1noc(C)c1NC(=O)N(C)C[C@@H]1Oc2ccc(NC(=O)NC3CCCCC3)cc2C(=O)N([C@@H](C)CO)C[C@@H]1C
  7, -1, 0.9, -0.14
> C[C@H](CO)N1C[C@H](C)[C@H](CN(C)Cc2ccncc2)Oc2c(NC(=O)Nc3ccc(C(F)(F)F)cc3)cccc2C1=O
  -11, -9, 0.9, 0.35
> C[C@@H]1CN([C@H](C)CO)C(=O)c2cccc(NC(=O)c3nc4ccccc4s3)c2O[C@@H]1CN(C)C(=O)Nc1cccc2ccccc12
  13, -12, 0.9, -0.25
> C[C@@H]1CN([C@@H](C)CO)C(=O)c2cccc(NC(=O)C3CC3)c2O[C@H]1CN(C)C
  -23, -6, -0.8, -0.17
> C[C@H]1CN([C@@H](C)CO)C(=O)c2cccc(NS(=O)(=O)c3ccc(Cl)cc3)c2O[C@@H]1CN(C)C(=O)Nc1ccc(C(F)(F)F)cc1
  -39, 2, -1.0, -0.84
> CC(=O)Nc1ccccc1NC(=O)COc1ccc(Br)cc1Cl
  ., 25, -2.0, .
> Cc1c(Cl)cccc1NC(=O)COc1cc(O)c2c(=O)cc(-c3ccccc3)oc2c1
  ., 4, -0.1, .
> C[C@@H]1CN([C@@H](C)CO)C(=O)c2cc(NS(=O)(=O)c3ccccc3)ccc2O[C@H]1CN(C)C(=O)Nc1ccccc1
  -24, -6, -0.6, 0.37
> Cc1cc(C)c(NC(=O)CSc2nnc(-c3ccncc3)n2-c2ccc(F)cc2)c(C)c1
  ., 7, 0.7, .
> CNC[C@@H]1Oc2ccc(NC(=O)NC(C)C)cc2C(=O)N([C@@H](C)CO)C[C@H]1C
  ., 0, 2.0, 0.083
> C[C@@H]1CN([C@H](C)CO)C(=O)c2cccc(NS(=O)(=O)c3cccs3)c2O[C@@H]1CN(C)CC1CC1
  -80, 0, 2.9, -0.011
> Cc1ccc(S(=O)(=O)N(C)C[C@@H]2Oc3ccc(NC(=O)CCN4CCOCC4)cc3CC(=O)N([C@@H](C)CO)C[C@@H]2C)cc1
  8, -1, ., -0.67
> COC(/C=C/C(OC(C)=O)C(C)OC(C)=O)C(O)C1CC=CC(=O)O1 (configuration not stated)
  3, -16, -0.3, 0.11

The list continues:
Values run as follows: Hedgehog inh, MITF inhib, PD-1 reversal, YB-1 expression
> C[C@@H]1CN([C@@H](C)CO)C(=O)c2cccc(NC(=O)Nc3ccccc3)c2O[C@@H]1CN(C)S(=O)(=O)c1ccc(Cl)cc1
  -14, 44, -2.0, -0.7
> CC(=O)CCCC1Cc2cccc(O)c2C(=O)O1 (configuration not stated)
  -5, ., ., 1.2
> C[C@@H]1CCCCO[C@H](CN(C)C(=O)c2ccccc2)[C@@H](C)CN([C@H](C)CO)C(=O)c2cc(NS(=O)(=O)c3ccc(F)cc3)ccc2O1
  9, 9, 0.1, -0.17
> CNC[C@H]1Oc2c(NS(=O)(=O)c3cccs3)cccc2C(=O)N([C@@H](C)CO)C[C@H]1C
  -31, -17, 0.8, -1.3
> C[C@@H]1CN([C@@H](C)CO)C(=O)c2cc(NC(=O)c3ccncc3)ccc2O[C@H]1CN(C)C(=O)NC1CCCCC1
  7, -12, -0.6, 0.053
> COc1ccc(OCC(=O)Nc2ccccc2OC(F)F)cc1
  ., -27, 0.2, .
> N#C/C(=C\NCc1cc(C(F)(F)F)cc(C(F)(F)F)c1)S(=O)(=O)Cc1ccco1
  -12, -4, -0.8, 0.24
> C[C@H]1CN([C@@H](C)CO)C(=O)c2cc(NC(=O)Cc3ccccc3)ccc2O[C@@H]1CN(C)S(=O)(=O)c1ccccc1
  ., 9, 0.4, 0.44
> C[C@@H]1CCCCO[C@@H](CN(C)C(=O)Nc2ccccc2)[C@@H](C)CN([C@H](C)CO)C(=O)c2cc(NC(=O)Nc3ccc(F)cc3)ccc2O1
  -11, 19, ., -0.012
> Cc1ccc(S(=O)(=O)N(C)C[C@@H]2Oc3ccc(NC(=O)Nc4ccc(C(F)(F)F)cc4)cc3CC(=O)N([C@H](C)CO)C[C@@H]2C)cc1
  56, 34, -3.3, 0.55
> CCn1c(SCC(=O)Nc2cc(Cl)ccc2Cl)nnc1-c1ccncc1
  ., -3, -0.3, .
> C[C@H](CO)N1C[C@H](C)[C@H](CN(C)C(=O)Nc2ccc(F)cc2)Oc2ccc(NC(=O)Nc3cccc4ccccc34)cc2CC1=O
  ?, 39, ., -0.12
> C[C@@H]1CN([C@@H](C)CO)C(=O)Cc2cc(NC(=O)c3ccncc3)ccc2O[C@@H]1CN(C)Cc1ccc(Oc2ccccc2)cc1
  32, 12, -3.8, -0.065
> C[C@H](CO)N1C[C@H](C)[C@@H](CN(C)S(=O)(=O)c2ccc(Cl)cc2)Oc2ccc(NS(=O)(=O)c3ccccc3)cc2C1=O
  -1, -3, -1.1, 0.084
> CCc1cccc2c(C#N)cn(CC(=O)NCC3CCCO3)c12 (configuration not stated)
  ., -4, 0.3, .

Carrying on:
Values run as follows: Hedgehog inh, MITF inhib, PD-1 reversal, YB-1 expression
> Cc1ccc(-c2nc3ccccc3s2)cc1NC(=O)COc1ccccc1
  ., 6, -1.2, .
> C[C@@H]1CN([C@H](C)CO)C(=O)Cc2cc(NC(=O)Nc3ccccc3)ccc2O[C@H]1CN(C)Cc1ccc(C(F)(F)F)cc1
  28, 3, 1.5, 0.13
> C[C@@H]1CN([C@@H](C)CO)C(=O)c2cccc(NC(=O)C3CCCCC3)c2O[C@@H]1CN(C)S(=O)(=O)c1ccc(F)cc1
  -30, -14, ., 0.33
> C[C@H](CO)N1C[C@H](C)[C@@H](CN(C)C(=O)Nc2ccc3c(c2)OCO3)Oc2c(NC(=O)c3cnccn3)cccc2C1=O
  -1, -6, 0.7, 0.26
> COc1cccc(NC(=O)CSc2nc(N)c(-c3ccccc3)c(=O)[nH]2)c1
  ., -3, 0.2, .
> C[C@@H]1CN([C@@H](C)CO)C(=O)c2cc(NC(=O)Cc3cn(C)c4ccccc34)ccc2O[C@H]1CN(C)C(=O)Nc1ccc(F)cc1
  -7, 12, ., 0.15
> C[C@H]1CN([C@@H](C)CO)C(=O)c2cccc(NC(=O)C3CC3)c2O[C@@H]1CN(C)S(=O)(=O)c1ccc(Cl)cc1
  7, 0, 0.5, -0.12
> Cc1ccc(S(=O)(=O)Nc2ccc3c(c2)CC(=O)N([C@@H](C)CO)C[C@H](C)[C@@H](CN(C)Cc2ccc4c(c2)OCO4)O3)cc1
  28, 13, 1.4, -0.13
> Cc1cc(Cl)ccc1OC(C)C(=O)Nc1cccc(C(=O)O)c1 (configuration not stated)
  ., -53, 1.0, .
> Cc1ccc(N(C(C)C(=O)Nc2ccc(Oc3ccccc3)cc2)S(C)(=O)=O)cc1 (configuration not stated)
  ., 40, 2.1, .
> N#Cc1nc(-c2cccs2)oc1NCCCN1CCOCC1
  ., -18, -0.1, .
> Cc1ccccc1NC(=O)COc1ccc(C)c([N+](=O)[O-])c1
  ., 0, -0.9, .
> O=S(=O)(NCC1COc2ccccc2O1)c1ccc(S(=O)(=O)c2ccccc2)s1 (configuration not stated)
  -24, 20, 0.7, 0.067
> C[C@H](CO)N1C[C@H](C)[C@@H](CN(C)Cc2ccncc2)Oc2ccc(NC(=O)CCCN(C)C)cc2C1=O
  -34, 10, 1.0, -0.41
> C[C@H]1CN([C@@H](C)CO)C(=O)Cc2cc(NC(=O)Nc3cccc4ccccc34)ccc2O[C@H]1CN(C)S(=O)(=O)c1ccccc1
  16, 12, ., 0.062

Additional compounds:
Values run as follows: Hedgehog inh, MITF inhib, PD-1 reversal, YB-1 expression
> C[C@H](CO)N1C[C@H](C)[C@H](CN(C)C)Oc2ccc(NC(=O)Nc3cccc4ccccc34)cc2CC1=O
  -2, -8, 0.7, -0.017
> CCC(C(=O)Nc1ccccc1C(=O)N1CCOCC1)N1C(=O)c2ccccc2C1=O (configuration not stated)
  ., -22, 1.9, .
> Cc1noc(C)c1NC(=O)Nc1ccc2c(c1)CC(=O)N([C@H](C)CO)C[C@@H](C)[C@H](CN(C)C(=O)NC1CCCCC1)O2
  -8, -8, ., 0.32
> NNC(=O)c1cccc(C(F)(F)F)n1
  -37, 3, 0.7, -0.29
> C[C@@H]1CN([C@@H](C)CO)C(=O)c2cccc(NC(=O)CCCCCC(=O)Nc3ccccc3N)c2O[C@H]1CN(C)C(=O)Nc1ccc(C(F)(F)F)cc1
  ., -13, 0.7, -0.11
> O=C(COC(=O)c1cccs1)c1ccc2c(c1)OCCO2
  -14, -46, 1.4, 0.00055
> COc1ccc(S(=O)(=O)N(C)C[C@@H]2Oc3c(NC(=O)c4nc5ccccc5s4)cccc3C(=O)N([C@H](C)CO)C[C@H]2C)cc1
  6, 17, ., -0.13
> C[C@H](CO)N1C[C@H](C)[C@H](CN(C)C(=O)Nc2ccc(C(F)(F)F)cc2)Oc2ccc(NC(=O)Nc3cccc4ccccc34)cc2C1=O
  -35, 23, -2.7, -0.15
> C=C[C@H]1[C@H](O[C@@H]2O[C@H](CO)[C@@H](O)[C@H](O)[C@H]2O)OC=C(C(=O)OC)[C@H]1C[C@@H]1N[C@H](C(=O)O)Cc2c1[nH]c1ccccc21
  -10, -19, -1.3, -0.37
> C[C@H](CO)N1C[C@H](C)[C@H](CN(C)Cc2ccc(Oc3ccccc3)cc2)Oc2ccc(NC(=O)C3CCCCC3)cc2C1=O
  ., -6, -3.6, 0.14
> C[C@@H]1CN([C@@H](C)CO)C(=O)c2cc(NS(=O)(=O)c3ccc(Cl)cc3)ccc2O[C@H]1CN(C)C(=O)Nc1ccccc1
  7, 8, 0.6, 0.3
> COc1ccc(Cl)cc1NC(=S)NCCn1cc(Br)cn1
  ., 17, -2.0, .
> COc1ccc(CN(C)C[C@@H]2Oc3c(NS(C)(=O)=O)cccc3C(=O)N([C@@H](C)CO)C[C@@H]2C)cc1
  18, -13, 1.0, 0.012
> CC(C)(C)c1nc(=S)[nH][nH]1
  33, -5, 0.2, 0.16
> CSc1cccc(NC(=O)CSc2nnc(C)s2)c1
  ., 4, -0.6, .

Other entries follow:
Values run as follows: Hedgehog inh, MITF inhib, PD-1 reversal, YB-1 expression
> CCCc1nc2c(C)cc(-c3nc4ccccc4n3C)cc2n1Cc1ccc(-c2ccccc2C(=O)O)cc1
  5, -3, ., 0.22
> C[C@@H]1CN([C@@H](C)CO)C(=O)c2cc(NC(=O)CCN3CCOCC3)ccc2O[C@@H]1CN(C)Cc1ccccc1
  16, -4, 1.6, -0.32
> CC(C)NC(=O)N(C)C[C@@H]1OCCCC[C@@H](C)Oc2ccc(NC(=O)CCCCCC(=O)Nc3ccccc3N)cc2C(=O)N([C@H](C)CO)C[C@@H]1C
  ., -11, 1.5, -0.26
> O=C(CCC(=O)c1ccc(Oc2ccccc2)cc1)Nc1cccnc1
  ., 9, 1.2, .
> CC1=CC(=O)C2C(C)(C)CC(O)CC2(C)C1(O)CO (configuration not stated)
  -5, -2, 2.1, -0.027
> C[C@@H]1CN([C@@H](C)CO)C(=O)Cc2cc(NC(=O)CCC(F)(F)F)ccc2O[C@@H]1CN(C)Cc1ccc(Cl)c(Cl)c1
  3, 45, -8.2, 0.43
> C[C@@H]1CN([C@@H](C)CO)C(=O)Cc2cc(NC(=O)Cn3cnnn3)ccc2O[C@@H]1CN(C)C(=O)Nc1cccc2ccccc12
  ., 12, 0.0, 0.24
> CC(C)OC(=O)CCN1C(=O)/C(=C/c2ccccc2)SC1=S
  25, -5, -1.5, -0.09
> O=C(CSc1nc2ccccc2s1)c1cc2ccccc2o1
  ., 0, -0.2, .
> C[C@@H]1CCCCO[C@@H](CN(C)C(=O)Nc2ccc(C(F)(F)F)cc2)[C@@H](C)CN([C@H](C)CO)C(=O)c2cc(NS(=O)(=O)c3ccccc3)ccc2O1
  ?, 24, ., -0.21
> COc1ccc(CN(C)C[C@H]2OCCCC[C@@H](C)Oc3ccc(NS(=O)(=O)c4ccccc4)cc3C(=O)N([C@H](C)CO)C[C@@H]2C)cc1
  -24, 7, -0.3, 0.063
> Cc1ccc(CC(CC(=O)O)C(=O)Nc2ccc(Cl)cc2)cc1 (configuration not stated)
  ., -4, 1.5, .
> Cc1cccc(-c2n[nH]c(S(C)(=O)=O)c2C#N)c1
  -31, -15, 5.5, 0.048
